# LASV entry inh = qHTS for Inhibitors of binding or entry into cells for Lassa Virus. Lassa virus pseudotype entry inhibition, cell reporter; control for the full effect not named in the record. Potency, µM (doses to about 37.9 µM), for the others: top-dose activity change, negative = inhibition, actives largely listed as inhibitors. hit rate 1.2% among 300,000. AID 540256, 2011; active means well fitted inhibition curve with a large enough effect; inconclusive means small, poorly fitted or top-dose-only effect, or effect the other way; inactive means flat fitted curve, though single readings scatter; tested in HEK293 cells; note: % is set by controls: 0 for no effect and ±100 for the full control effect; nearly all actives have a fitted effect of over 50% in size; luciferase read-out
# Cruzain Triton = qHTS Assay for Promiscuous and Specific Inhibitors of Cruzain (with detergent) | Potency, µM, for the others: max response, negative = inhibition, most hits filed as inhibitors | purified cruzain, Z-FR-AMC fluorescence, 0.01% Triton | hit rate 0.43% among 200,000;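 note: plate controls were neutral wells for no effect and buffer without enzyme for full effect; nearly all actives have a fitted effect of over 40% in size; top concentration of the series not given in the record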
# Target sequence (P25779 123-467 limits assumed): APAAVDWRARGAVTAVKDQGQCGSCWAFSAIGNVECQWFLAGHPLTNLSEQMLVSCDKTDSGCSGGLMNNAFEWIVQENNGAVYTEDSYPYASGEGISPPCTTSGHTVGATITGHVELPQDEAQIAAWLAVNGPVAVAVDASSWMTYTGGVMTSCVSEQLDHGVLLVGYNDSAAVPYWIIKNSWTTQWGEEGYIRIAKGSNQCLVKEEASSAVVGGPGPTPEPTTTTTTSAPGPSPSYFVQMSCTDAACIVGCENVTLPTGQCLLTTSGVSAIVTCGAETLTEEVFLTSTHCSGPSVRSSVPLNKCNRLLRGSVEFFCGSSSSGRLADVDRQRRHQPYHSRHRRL
#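 Z-FR-AMC hydrolysis (2 uM substrate) by cruzain (1.5 nM) monitored kinetically at ex 360/em 450 nm after 15 min room-temperature compound exposure; 0.01% Triton X-100, pH 5.5, 5 mM DTT.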
# SARS PLpro yeast = qHTS of Yeast-based Assay for SARS-CoV PLP | S. cerevisiae expressing SARS-CoV PLpro, growth rescue; control for the full effect not named in the record | Potency, µM (series often up to 32.9 µM), for the others: at the highest dose activity, positive = growth rescue | hit rate 0.19% among 330,000; active means well fitted rising curve with a large enough effect; inconclusive means small, poorly fitted or top-dose-only effect; inactive means no such curve, though single readings can be large or run the other way; note: 0% is about no effect; nearly all actives have a fitted effect of over 55% in size; growth read by luminescence after 48 h
# Cruzain inh noDet = qHTS Assay for Promiscuous and Specific Inhibitors of Cruzain (without detergent); AID 1476, 2009; hit rate 2.3% among 200,000; Cruzipain (Trypanosoma cruzi), P25779; Potency, µM, inactives show max response, negative = inhibition, actives largely listed as inhibitors; purified cruzain, Z-FR-AMC fluorescence, no detergent;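 note: plate controls were enzyme without inhibitor for no effect and buffer without enzyme for full effect; nearly all actives have a fitted effect of over 40% in size; top concentration of the series not given in the record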
#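 Purified cruzain at 1.5 nM, pre-incubated 15 min with compound at room temperature in 100 mM sodium acetate pH 5.5, 5 mM DTT, 0.00005% Triton X-100. Reaction started with 2 uM Z-FR-AMC; AMC fluorescence increase over 60 s gives rate.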
# MARV entry inh = qHTS for inhibitors of binding or entry into cells for Marburg Virus; Potency, µM (top dose mostly 37.8 µM), without a hit: at the top dose activity change, negative = inhibition, most hits filed as inhibitors; hit rate 1.8% among 300,000; AID 540276, 2011; Marburg virus pseudotyped entry inhibition, cell reporter; control for the full effect not named in the record; about a third of the inactives were read at about 46 µM; active = well fitted inhibition curve with a large enough effect; inconclusive = small, poorly fitted or top-dose-only effect, or effect the other way; inactive = flat fitted curve, though single readings scatter; tested in HEK293 cells; about a fifth of its hits are not listed in these tables; note: % is set by controls: 0 for no effect and ±100 for the full control effect; luciferase read-out
# StopGo reporter = High Throughput Screening for Foot and Mouth Disease Virus Antivirals. Potency, µM (top dose mostly 57.9 µM), for the others: top-dose signal change, negative = less light. AID 1159524, 2015. hit rate 1.2% among 410,000. human cells with a luciferase reporter of 2A StopGo recoding; control for the full effect not named in the record; active = well fitted falling curve with a large enough effect; inconclusive = small, poorly fitted or top-dose-only effect; inactive = no such curve, though single readings can be large or run the other way; tested in HEK293T cells; note: % is set by controls: 0 for no effect and ±100 for the full control effect; nearly all actives have a fitted effect of over 45% in size; luciferase light after 4 h
# RE007 growth inh = qHTS Assay for Inhibitors of the HIV-1 protein Vpr; S. pombe RE007 Vpr strain, BacTiter-Glo ATP luminescence, 24 h; control for the full effect not named in the record; Potency, µM (top dose mostly 92.2 µM), for the others: top-dose activity change, negative = less growth; hit rate 0.21% among 360,000; AID 651644, 2012; active = well fitted falling curve with a large enough effect; inconclusive = small, poorly fitted or top-dose-only effect; inactive = no such curve, though single readings can be large or run the other way;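 note: % is set by controls: 0 for no effect and ±100 for the full control effect; nearly all actives have a fitted effect of over 50% in size; the assay follows cell death caused by Vpr and the record does not say whether a fall means rescue or toxicity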
#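 Fission yeast RE007 carrying one integrated HIV-1 vpr copy, seeded at OD 0.01 in PMG+AL medium with 23 nL pinned compound. Grown 24 h at 30 degrees; viability read by BacTiter-Glo luminescence after 5 min.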
# NS1 function inh = qHTS Assay for Inhibitors of Influenza NS1 Protein Function. S. cerevisiae slowed by influenza A NS1, growth recovery by OD600. hit rate 0.4% among 270,000. Potency, µM (top dose mostly 46.1 µM), for inactives: at the highest dose activity, positive = more growth; active means well fitted rising curve with a large enough effect; inconclusive means small, poorly fitted or top-dose-only effect; inactive means no such curve, though single readings can be large or run the other way; note: nearly all actives have a fitted effect of over 50% in size
#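 Compounds were scored for reversing the slow growth caused by influenza A NS1 in S. cerevisiae, measured by optical density at 600 nm. Assay medium contained 2% galactose at pH 6.0; NS1-free yeast of the same strain were the positive control.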
# Active calls of the source: *; ? = inconclusive; / = not tested or not shown; & = joins results of further samples; [ ] = remark or other dose. Unless noted, calls come from the whole dose curve; as a rule, active = well fitted curve in the direction sought with a large enough effect; inconclusive = small, poorly fitted or top-dose-only effect, or another doubt; inactive = no such curve, though single readings can be large; an effect the other way counts as inactive or inconclusive. Potency is the fitted concentration of half-maximal effect.
SMILES,LASV entry inh,Cruzain Triton,SARS PLpro yeast,Cruzain inh noDet,MARV entry inh,StopGo reporter,RE007 growth inh,NS1 function inh
CCOC(=O)CC(NC(=O)c1cc2cc(Cl)cc(Cl)c2oc1=O)c1cccc([N+](=O)[O-])c1 (stereo unspecified),0%,-3.4%,27%,?,22%,-8%,0%,8%
Cc1cccc(N2CCN(CCCNC(=O)C3CCCN(c4ncnc5c4nc4n5CCCCC4)C3)CC2C)c1 (stereo unspecified),?,/,4%,/,11µM*,?,-4%,-11%
CCOC(=O)c1cc(C)n(CC2CCC(C(=O)Nc3cccc(C(C)=O)c3)CC2)c1C (stereo unspecified),2%[46.1 µM],-6.9%,/,11%,/,-13%,/,/
COc1ccc(OC)c(C2NC(=O)NC(C)=C2C(=O)Nc2cc(C)cc(C)c2)c1 (stereo unspecified),0%[46.1 µM],-5.6%,/,1%,2%[46.1 µM],-11%,/,/
CCC(=O)Nc1ccc(C(=O)N/N=C/c2ccc([N+](=O)[O-])cc2)cc1,-4%,0.3%,-7%,6%,-3%,-11%,-10%,3%
COc1ccc(N2CCN(C(c3cccs3)C(C)NC(=O)C(=O)N3CCCC3)CC2)cc1 (stereo unspecified),/,/,13%,/,/,-26%,5%,9%
CC(=O)c1cccc(NC(=O)Nc2ccc3c(c2)OCO3)c1,3%[46.1 µM],/,6%,/,?,44%[activator],8%,9%
O=C(NCc1ccccc1)C1CCCN(C(=O)c2ccc(F)cc2)C1 (stereo unspecified),4%,/,-1%,/,-1%,-19%,6%,/
CC(C)(CNC(=O)C1CCCN1C(=O)c1cccs1)N1CCOCC1 (stereo unspecified),6%,/,-2%,/,-14%[46.1 µM],15%,-2%,-2%
O=C(NCCN1C(=O)S/C(=C\c2ccc(F)cc2)C1=O)C1CCN(S(=O)(=O)c2cccs2)CC1,3%,-7.7%,6%,3%,3%,8%,-5%,?
O=S(=O)(N1CCOCC1)n1cnc2ccccc21,8%,-2.8%,7%,1%,4%,-2%,8%,0%
O=c1c2cc(NC(=S)NC3CCN(Cc4ccccc4)CC3)ccc2nc2n1CCCCC2,-24%[46.1 µM],/,1%,/,?,-23%,-8%,/
Cc1ccc(CNC(=O)CSCc2nc(-c3cccc(C)c3)oc2C)cc1,/,-6.8%,/,17%,-27%[46.1 µM],?,/,/
CCCCN(c1ccccc1)S(=O)(=O)c1cccc(C(=O)O)c1,-21%,/,1%,/,-2%[46.1 µM],1%,1%,5%
CCc1cc(=O)oc2c3c(cc(OCC(=O)NCc4ccco4)c12)OC(C)(C)CC3,/,/,0%,/,/,?,-10%,-2%
Cc1cc(Cl)c2oc(C(=O)NCCC3CCCCO3)c(C)c2c1 (stereo unspecified),?,/,-8%,/,?,45%[activator],-4%,-46%
Cc1cccc(N2CCN(c3nc4ccccc4c4nc(-c5cccnc5)nn34)CC2)c1C,/,0.1%,/,12%,-12%[46.1 µM],-13%,/,/
S=C(NCCc1ccccn1)NC1CC2CCC1C2 (stereo unspecified),20%,/,9%,/,5%,-18%,159%,-5%
CCOC(=O)c1c(NC(=O)c2cc(CC)on2)sc(C)c1C,0%[46.1 µM],-2.4%,/,-3%,?,-15%,/,/
O=C(CN1C(=O)CCC1=O)NCC12CC3CC(CC(C3)C1)C2,2%,5.9%,/,-6%,26%,-14%,21%,?
Cn1c(C(=O)Nc2ccc3c(c2)OCO3)cc2sccc21,-2%,-6.0%,-3%,25µM*,0%,24%,?,-65%
Cn1c(=O)c2c(SCC(=O)NCc3ccco3)nc(-c3ccccc3F)nc2n(C)c1=O,11%[46.1 µM],2.2%,/,-1%,/,-20%,/,/
CCC(=O)N1N=C(c2ccc(Cl)cc2)CC1c1ccco1 (stereo unspecified),-28%,/,0%,/,-6%[14.2 µM],-12%,-2%,-2%
CS(=O)(=O)N(CC(=O)N1CCC(C(N)=O)CC1)C1CCCCC1,?,1.7%,-4%,0%,23%,13%,-2%,6%
CCOP(=S)(NN(Cc1ccccc1)C(=O)c1ccccc1)OCC,3%,-4.7%,?,2%,-18%,-10%,6%,-9%
CCOC(=O)CSc1nc2ccc(NC(C)=O)cc2s1,1%,0.3%,-2%,-4%,?,28%,3%,-4%
CS(=O)(=O)N1CCN(c2nc(-c3ccccc3)cs2)CC1,?,-5.9%,6%,-3%,15%,-6%,-9%,10%
O=C(CSC(=S)N1CCCCC1)Nc1ncc2c(n1)CCCC2=O,2%,/,-1%,/,?,-3%,-11%,-3%
COc1ccc(C(C)=O)cc1CSc1nnc(-c2ccncc2)n1C,17%[46.1 µM],/,1%,/,16%[46.1 µM],7%,-10%,/
Cc1cc2ncn(N)c2cc1C,12%[14.3 µM],-3.6%,-1%,-17%,-2%,6%,-20%,4%
CC(=O)c1ccccc1NC(=O)COC(=O)/C(=C/c1ccccc1)n1nnnc1C,/,/,-4%,/,?,22µM*,-10%,-14%
Cc1occc1C(=O)Nc1cccc2ccccc12,-25%,-6.9%,-85%,0%,?,22%,?,-99%
COc1ccccc1Nc1nn2c(=O)c3ccc(C(=O)N4CCCCC4)cc3nc2s1,-1%&13%[46.1 µM],-3.8%,-1%,-10%,?,-6%&-21%,20%,4%
COc1ccc(C(=O)OCC2CC(c3ccccc3)N(C)O2)cc1 (stereo unspecified),4%,-2.2%,3%,2%,-10%,-16%,-8%,-65%
Nc1ncc(S(=O)(=O)NCc2cccc(Cl)c2)cn1,3%[46.1 µM],0.5%,/,2%,/,-1%,/,/
CCc1ccccc1NC(=O)Cn1nnc(C(=O)Nc2ccc(C)c(F)c2)c1N,23%[46.1 µM],-1.6%,/,-9%,/,7%,/,/
CCn1c(=O)n(CC(=O)N2CCC3(CC2)OCCO3)c(=O)c2ccccc21,20%,4.4%,-1%,-8%,1%,-8%,-3%,2%
COc1cccc(C2=CC(c3ccc(N(C)C)cc3)n3nnnc3N2)c1 (stereo unspecified),-28%,-4.4%,1%,-21%,?,-7%,2%,0%
COc1ccc(-n2c(=O)c3c4c(sc3n3c(=S)[nH]nc23)CCC4)cc1,6%,/,0%,/,2%[14.2 µM],-2%,-1%,-3%
CCOC(=O)CN1C(=O)C(C)(C)Oc2ccc(C(=O)Nc3ccccc3OC)cc21,-16%,-3.3%,1%,2%,-2%,-20%,-18%,-6%
CCC(=O)N1CCN(C(=O)c2ccccc2)CC1,?,2.8%,/,9%,?,-21%,-7%,-9%
Cn1c(=O)c2ncn(CC(=O)Nc3cc(C(F)(F)F)ccc3N3CCOCC3)c2n(C)c1=O,-2%,1.9%,-2%,16%,14%,24%,-3%,?
O=C(CCC(=O)Nc1ccccc1)NNC(=O)COc1ccccc1,6%,-2.5%,5%,9%,?,-14%,-9%,-5%
Cc1cccc(CC(Cc2nc3ccccc3[nH]2)c2nc3ccccc3[nH]2)c1 (stereo unspecified),?,1.8%,8%,6%,?,?,34%,-19%
Cc1ccccc1-n1nc2c(c1NC(=O)c1cc3ccccc3o1)CS(=O)(=O)C2,0%,/,1%,/,-12%,-12%,-1%,/
CCCc1[nH][nH]c(=O)c1C(c1ccc(Br)cc1)C(C#N)C#N (stereo unspecified),2%,-6.9%,-9%,2%,2%,/,-27%,-16%
Cc1cccc(C)c1NC(=S)N/N=C/c1ccc(OCCC(C)C)cc1,?,-6.5%,?,-8%,?,?,-8%,5%
COCCN(C(=O)COC(=O)C(c1ccccc1)c1ccccc1)c1c(N)n(Cc2ccccc2)c(=O)[nH]c1=O,0%,/,2%,/,-19%,-16%,43%,/
CCOC(=O)C1=C(C)N=C2SCCC(=O)N2[C@@H]1/C=C/c1ccccc1,-1%,-7.4%,2%,-17%,-18%[46.1 µM],-10%,17%,0%
COc1cc2nc(SCC(=O)NCc3ccco3)n(Cc3ccc(Cl)cc3)c(=O)c2cc1OC,?,0.7%,5%,11%,?,6%,5%,5%
Cc1ccc[n+](-c2[nH]c(=O)sc2/C=N/NC(=O)c2ccccc2[O-])c1,5%,-15%,-8%,-8%,?,6%,6%,-1%
CCCCNC(=O)N1CCN(c2ccccc2OCC)CC1,-2%,/,-1%,/,-20%[46.1 µM],-1%,-6%,0%
COc1cccc(C(=O)Nc2ccc3c(c2)C(=O)c2ccccc2C3=O)c1,19%,-1.4%,-8%,?,?,16%,-1%,-3%
Cc1ccc(S(=O)(=O)C(c2ccccc2)c2c(C)noc2C)cc1 (stereo unspecified),0%,-3.6%,-33%,0%,0.63µM*,-27%,6%,-34%
O=C(N/N=C\c1ccc(Br)cc1)c1ccc(Cn2cccn2)o1,3%,-3.4%,19%,1%,-16%,23%,31%,4%
O=C(CCN1C(=O)C2CCCCC2C1=O)Nc1nc(-c2ccccc2)cs1 (stereo unspecified),/,/,-1%,/,/,-12%,20%,-5%
Cc1cc2c(=O)n(C)c(SCC(=O)Nc3ccccc3)nc2s1,/,/,-4%,/,23%[46.1 µM],8%,16%,7%
CCn1c(=O)n(CC)c2cc(S(N)(=O)=O)ccc21,/,-1.4%,-6%,3%,/,-1%,8%,-1%
CCCc1nnc(SCC(=O)Nc2ccc(C(=O)OCC)cc2)o1,0%[46.1 µM],/,3%,/,7%[46.1 µM],14%,57%,-52%
COc1cc(C(=O)N/N=C/c2ccccn2)cc(OC)c1OC,-20%[46.1 µM],/,2%,/,?,-5%,3%,/
Cc1nc2cc(-c3ccccc3)[nH]n2c(=O)c1C,/,/,-8%,/,/,56%[activator],2%,15%
Cn1c(Oc2ccccc2NCc2cccc(Br)c2)cc(=O)n(C)c1=O,0%,-1.3%,-2%,20%,0%,-3%,18%,9%

# Screening results (PubChem)
